Screening results from PubChem.
NPYLR7 agonist: activates Aedes aegypti NPYLR7 receptor | AID 1259423 | HEK293T NPYLR7/Galpha15, GCaMP6s calcium fluorescence | 270,000 tested, 0.15% active | activation, % at 10 µM; in the data active means activation above about 40%;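 further: 0% = vehicle and 100% = reference agonist at the receptor; some compounds past the cut are filed as inactive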
NPYLR7 agonist max-min: recorded beside NPYLR7 agonist, whose call it bears; activation, %; measured here: Max-Min RFU normalised activation; some inactives read as strong as hits;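 span of the calcium signal over five minutes; 0% = vehicle and 100% = native peptide agonist; compound fluorescence can raise it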
* = called active by the depositor. Some of the compounds tested (hit frequency here may not be typical).

1) O=C(NCc1ccc(Cl)cc1)c1cccc(C(=O)N2CCCC2)n1
2) COc1cc(C(=O)Nc2cc(C(=O)N3CCOCC3)cn(C)c2=O)cc(OC)c1OC
3) O=C(O)Cn1c(SCCOc2ccccc2)nc2ccccc21
4) O=C(Cc1c(F)cccc1Cl)NCCSc1ccccc1
5) COc1nc(-c2ccc(Cl)c(Cl)c2)n(-c2ccc(NC(=O)Cc3cccs3)cc2)n1

compound no.	1	2	3	4	5
NPYLR7 agonist	-5	-12	1	3	19
NPYLR7 agonist max-min	-5	-16	0	11	19

6) CC(=O)c1ccccc1-c1ccc(C(=O)NCC2CCN(CC(C)C)C2)cn1 (stereo not drawn)
7) COC(=O)C1=C(C)N(Cc2ccccc2)C(=O)C1(NC(=O)C1CC1)C(F)(F)F (stereo not drawn)
8) COCCCNC(=O)C(=O)Nc1ccc(-c2nnc(Nc3ccc(OC)cc3)s2)cc1
9) CC(C)c1nccc(CN2CCCC(C(=O)c3cccc4ccccc34)C2)n1 (stereo not drawn)
10) O=C(Nc1ccc(-c2ccc(N3CCCC3)nn2)cc1)C(F)(F)F

compound no.	6	7	8	9	10
NPYLR7 agonist	1	15	-6	4	1
NPYLR7 agonist max-min	-1	7	-9	-4	-1

11) COc1ccc(Cl)cc1NC(=O)Cn1nc([N+](=O)[O-])c(Cl)c1C
12) CCN(CC)CCNc1nc2ccc(Br)cc2s1
13) COc1cc(N)c([N+](=O)[O-])cc1OC
14) CCCCC(=O)Nc1c(-c2ccccc2C)nc2cc(C)ccn12
15) Cc1cccc(-c2nc3c(C)cccc3o2)c1OCC(=O)O

compound no.	11	12	13	14	15
NPYLR7 agonist	-3	4	11	-4	-4
NPYLR7 agonist max-min	-5	3	13	1	-9

16) O=C(C1CCCCCC1)N1CCCC(N2CCN(c3cccc(C(F)(F)F)c3)CC2)C1 (stereo not drawn)
17) CCOc1ccccc1N1CCN(C(=O)c2cc(-c3ccccc3Cl)nc3cc(-c4ccccc4)nn23)CC1
18) COc1cc(-c2nc3cc(C)ccn3c2NC(C)(C)CC(C)(C)C)ccc1OS(=O)(=O)c1ccc(Cl)cc1
19) C=CCOc1cccn2c(N(C)C(=O)c3cccs3)c(CC)nc12
20) CC1(C(=O)NS(=O)(=O)c2ccccc2Cl)CCN1C(=O)C1CC1 (stereo not drawn)

compound no.	16	17	18	19	20
NPYLR7 agonist	3	4	16	7	0
NPYLR7 agonist max-min	-1	6	12	-1	2

21) CC(C)c1ccc(NC(=O)c2ccc(-c3ccnn3C)c3ccoc23)cc1
22) COc1ccc(S(=O)(=O)Oc2ccc(CN(CC3CCCO3)C(=O)c3ccccc3F)cc2)cc1 (stereo not drawn)
23) CC(=O)NCCNC[C@@H]1C=C(C)[C@H](Cc2nnc(C(C)(C)C)o2)C[C@H]1C(C)C
24) CCSc1ncc(CN2CCN(c3nc(C)cnc3C)CC2)cn1
25) Nc1ncnc(Sc2nnnn2-c2ccccc2)c1[N+](=O)[O-]

compound no.	21	22	23	24	25
NPYLR7 agonist	-15	22	-8	2	-3
NPYLR7 agonist max-min	-15	22	-10	0	-2

26) O=C(NC[C@H]1CCc2ccccc2O1)c1cn(Cc2ccccc2Cl)nn1
27) Fc1ccc(-c2cnc(CSc3nnnn3C3CC3)o2)cc1
28) COCCCNc1nc(-c2c[nH]c3ccccc23)nc2c1CNC2
29) O=C(CCc1csc(NC(=O)c2ccc[nH]c2=O)n1)Nc1ccc(F)c(F)c1
30) COCCn1c(NCc2ccccc2)nc2c1c(=O)[nH]c(=O)n2C

compound no.	26	27	28	29	30
NPYLR7 agonist	9	4	1	-5	-3
NPYLR7 agonist max-min	-5	4	13	-16	-6

31) CCc1nc2ccc(C(=O)N3CCCC(C(N)=O)C3)cn2c1N(C)CCC(C)C (stereo not drawn)
32) Cc1nc(-c2cccc(NC(=O)N3CCSCC3)c2)oc1C
33) CC(C)NC(=O)N1CCN(c2cc(Cl)nc(SCC(=O)NC(c3ccccc3)c3ccccc3)n2)CC1C (stereo not drawn)
34) CN(c1ccccc1)N1C(=O)c2ccccc2NC12CCN(C(=O)CC(C)(O)C(F)(F)F)CC2 (stereo not drawn)
35) CCOC(=O)N1CCN(c2ncnc3sc4c(c23)CCCCC4)CC1

compound no.	31	32	33	34	35
NPYLR7 agonist	-2	-22	-6	1	6
NPYLR7 agonist max-min	-7	-24	-3	17	4

36) CCCN(CC(=O)N(Cc1ccco1)Cc1cccn1C)C(=O)c1ccc(Br)cc1
37) C[n+]1ccc(C(=O)NCc2ccccc2)cc1
38) Cc1cccc(C2=N/C(=C\c3cc4c(cc3Cl)OCO4)C(=O)O2)c1
39) CCC(C(=O)NCc1ccc(-c2ncc(-c3ccc(OC)cc3)[nH]2)cc1)c1ccccc1 (stereo not drawn)
40) O=C(CN1CCN(Cc2ccc3c(c2)OCO3)CC1)N1c2ccccc2Sc2ccccc21

compound no.	36	37	38	39	40
NPYLR7 agonist	-9	-2	13	-4	-3
NPYLR7 agonist max-min	-5	-7	15	6	-12

41) CN1N=C(c2ccc(O)c(C(=O)O)c2)C2NN=C(N)N21 (stereo not drawn)
42) COc1ccc(C(=O)N2CCn3c(nnc3C(N)=O)C2)cc1
43) CC1(C(=O)NS(=O)(=O)c2ccc(Br)cc2)CCN1C(=O)C1(c2ccccc2)CC1 (stereo not drawn)
44) O=C(CC1CC2CCC1C2)N(Cc1ccccc1)c1nccs1 (stereo not drawn)
45) O=C(CSc1nnc(-c2ccc(Cl)cc2)n1-c1ccccc1)N/N=C\c1c(O)ccc2ccccc12

compound no.	41	42	43	44	45
NPYLR7 agonist	2	11	2	10	-4
NPYLR7 agonist max-min	-1	5	1	8	-6

46) Cc1nn(CC(=O)NC(C)C)c(C)c1S(=O)(=O)NC(C)(C)C
47) CCCCCCCCCC(=O)NCc1nnc(SCc2cccc(C)c2)n1-c1ccc([N+](=O)[O-])cc1
48) CCn1c2ccccc2c2cc(-c3nc(C)c(C)n3CC(=O)N3CC=CCC3)ccc21
49) COc1ccc(C(=O)N2CCN(c3ccc(-n4nc(C)cc4C)nn3)CC2)cc1OC
50) OC(CCN1CCCCC1)(c1ccccc1)C1C[C@@H]2C=C[C@H]1C2 (stereo partly drawn)

compound no.	46	47	48	49	50
NPYLR7 agonist	-1	-4	10	-5	-4
NPYLR7 agonist max-min	2	1	4	-11	-9

51) CC1(C(=O)Nc2ccccc2F)CCN1Cc1cccc2c1OCO2 (stereo not drawn)
52) CN(Cc1cn[nH]c1-c1ccc(F)cc1)C(=O)CCn1cncn1
53) CCc1ccc(C(O)(CNCc2ccccc2)c2ccccc2)cc1 (stereo not drawn)
54) O=C(NCc1cnn(Cc2ccccc2)c1)c1cn(C2CCCCCC2)nn1
55) CCCCC(=O)Nc1ccc(NC(=S)NC(=O)c2cccs2)cc1OC

compound no.	51	52	53	54	55
NPYLR7 agonist	-7	0	-21	2	-6
NPYLR7 agonist max-min	-5	-3	-25	-6	-9

56) Cc1noc(C)c1C(=O)OCC(=O)c1cc(C)n(Cc2ccco2)c1C
57) CC(=O)Nc1ccc(NC(=O)c2cccn(OCc3ccc(F)cc3)c2=O)cc1
58) Cc1ccc(NC(=O)CSc2nc(=O)n(Cc3cccnc3)c3c2CCC3)cc1F
59) CN(C)C(=O)c1nc(CN2CCC3(CCCO3)CCC2=O)no1 (stereo not drawn)
60) Cc1cc(OC(=O)c2cccc([N+](=O)[O-])c2)c([N+](=O)[O-])c(=O)[nH]1

compound no.	56	57	58	59	60
NPYLR7 agonist	2	2	-1	24	7
NPYLR7 agonist max-min	8	1	-5	12	7

61) CCNC(=O)c1ccc(Cl)cc1NC(=O)C1CC=CCC1C(=O)O (stereo not drawn)
62) O=c1cccnn1CCNS(=O)(=O)c1ccc(-c2ccccc2)cc1
63) O=C1C(Br)CC2CC1CC(Br)C2=O (stereo not drawn)
64) COc1c(S(=O)(=O)n2nnc3ccccc32)ccc(Cl)c1Cl
65) CCN(Cc1ccccc1NS(=O)(=O)/C=C/c1ccc(C)cc1)C(C)=O

compound no.	61	62	63	64	65
NPYLR7 agonist	-5	3	-1	9	0
NPYLR7 agonist max-min	-6	2	-3	5	-4

66) CCN(CC)c1cccc(OCC2CN(C(=O)C(c3ccccc3)C(C)C)CCO2)c1 (stereo not drawn)
67) COc1ccc(Cc2cnc(=O)[nH]c2N)cc1
68) CCC(C(=O)N(Cc1cc(N)ccc1N(C)C)CC1CC1)c1ccccc1 (stereo not drawn)
69) COCC(NC1CSCCSC1)c1ccnn1C (stereo not drawn)
70) Cc1c(CCC#N)c(-n2ccnc2C)n2c(nc3ccccc32)c1C#N

compound no.	66	67	68	69	70
NPYLR7 agonist	24	-5	-8	4	5
NPYLR7 agonist max-min	20	-5	-3	3	1

71) COc1ccc(C(=O)N2CCc3[nH]nc(-c4ccc(F)c(F)c4)c3C2)c(O)c1
72) CC(=O)C1=C(c2cccs2)N(C(C)=O)n2c(nnc2-c2ccc(Cl)cc2)S1
73) Nc1cccc(-n2nncc2C23CC4CC(CC(C4)C2)C3)c1
74) Cn1cc(CNC(=O)c2coc(CN3CCN(Cc4ccccc4)CC3)n2)cn1
75) CC(=O)Nc1ccc(N=Cc2nc(-c3ccccc3Br)oc2O)cc1

compound no.	71	72	73	74	75
NPYLR7 agonist	2	1	5	14	2
NPYLR7 agonist max-min	1	-2	4	10	-1

Part of the list above, tab-delimited.
entry	SMILES	NPYLR7 agonist	NPYLR7 agonist max-min
59	CN(C)C(=O)c1nc(CN2CCC3(CCCO3)CCC2=O)no1 (stereo not drawn)	24	12
60	Cc1cc(OC(=O)c2cccc([N+](=O)[O-])c2)c([N+](=O)[O-])c(=O)[nH]1	7	7
61	CCNC(=O)c1ccc(Cl)cc1NC(=O)C1CC=CCC1C(=O)O (stereo not drawn)	-5	-6
62	O=c1cccnn1CCNS(=O)(=O)c1ccc(-c2ccccc2)cc1	3	2
63	O=C1C(Br)CC2CC1CC(Br)C2=O (stereo not drawn)	-1	-3
64	COc1c(S(=O)(=O)n2nnc3ccccc32)ccc(Cl)c1Cl	9	5
65	CCN(Cc1ccccc1NS(=O)(=O)/C=C/c1ccc(C)cc1)C(C)=O	0	-4
66	CCN(CC)c1cccc(OCC2CN(C(=O)C(c3ccccc3)C(C)C)CCO2)c1 (stereo not drawn)	24	20
67	COc1ccc(Cc2cnc(=O)[nH]c2N)cc1	-5	-5
68	CCC(C(=O)N(Cc1cc(N)ccc1N(C)C)CC1CC1)c1ccccc1 (stereo not drawn)	-8	-3
69	COCC(NC1CSCCSC1)c1ccnn1C (stereo not drawn)	4	3
70	Cc1c(CCC#N)c(-n2ccnc2C)n2c(nc3ccccc32)c1C#N	5	1
71	COc1ccc(C(=O)N2CCc3[nH]nc(-c4ccc(F)c(F)c4)c3C2)c(O)c1	2	1
72	CC(=O)C1=C(c2cccs2)N(C(C)=O)n2c(nnc2-c2ccc(Cl)cc2)S1	1	-2

Continuation:
76) CC(C)C(NS(=O)(=O)c1ccc(Cl)cc1)C(=O)NC1CCN(C2CC2)CC1 (stereo not drawn)
77) CCc1c(C#N)c(N)nc2sc(C#N)c(N)c12
78) CC(C)n1ncc2c(C(=O)NC3=NCCS3)cc(C3CC3)nc21
79) COc1cccc(NC(=O)N2CCSC23C(=O)N(Cc2cccc(F)c2)c2ccccc23)c1 (stereo not drawn)
80) CCOc1cc(Cl)c(S(=O)(=O)N2CCC(C(N)=O)CC2)cc1Cl

compound no.	76	77	78	79	80
NPYLR7 agonist	-1	-2	1	1	1
NPYLR7 agonist max-min	-1	-6	5	1	1

Complete entries as entered above.
`COc1cccc(NC(=O)N2CCSC23C(=O)N(Cc2cccc(F)c2)c2ccccc23)c1` (stereo not drawn) is listed as NPYLR7 agonist = 1; NPYLR7 agonist max-min = 1
`CCc1c(C#N)c(N)nc2sc(C#N)c(N)c12` is listed as NPYLR7 agonist = -2; NPYLR7 agonist max-min = -6

(further entries)
81) CC(C)(C#N)C(=O)NCC1(c2cccc(Br)c2)CC1
82) COc1ccc(F)cc1C(=O)Nc1cnc2n1CCCC2
83) CCN(CCCNC(=O)C1CCCN(c2cnc3ccccc3n2)C1)c1ccccc1 (stereo not drawn)
84) CC(C)(C)C(=O)OCCc1cn[nH]c1C(F)(F)F
85) CCNC(=O)[C@@H]1C[C@@H](N)CN1C(=O)c1ccccc1-n1cccn1

compound no.	81	82	83	84	85
NPYLR7 agonist	-4	6	19	-10	21
NPYLR7 agonist max-min	-9	4	9	-11	13

86) Cc1c(C(C)C)c(=O)oc2cc(O)ccc12
87) CN(C)c1nc2c(c(=O)[nH]1)CCN(C(=O)c1cn3cc(Cl)ccc3n1)C2
88) COC(=O)[C@@H](C)NC(=O)c1ccc(Oc2ccc(OC)cc2)cc1
89) COc1ccc(-c2nc(NCc3ccc(F)c(C)c3)[nH]c(=O)c2C#N)cc1
90) CC(Cn1cccn1)c1nc(CCc2ccccc2)nn1-c1ccccn1 (stereo not drawn)
91) CC(=O)c1ccc(N2CCCC(CO)(CCOc3ccccc3)C2)nc1 (stereo not drawn)
92) CC1(C)O[C@@H]2C[C@@](OCc3cccc(F)c3)(C(=O)NC3CC3)CC(OCc3ccccc3C#N)[C@@H]2O1 (stereo partly drawn)

compound no.	86	87	88	89	90	91	92
NPYLR7 agonist	25	-11	10	3	-7	-3	18
NPYLR7 agonist max-min	18	-16	2	4	-8	-6	30
